# Menin-MLL FL inh = displaces fluorescein MLL peptide from human menin. 290,000 tested, under 10 active. FP activity change, % at 61.4 µM. Fluorescence polarization, fluorescein-MLL peptide displacement from menin; inconclusive = falling polarisation curve, or a change in total fluorescence; inactive = total fluorescence flat and polarisation flat or rising; no compound was filed as active; the % refers to the polarisation; negative = inhibition;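 note: % of control where 0% means no effect; inhibitors lower the polarisation; unlabelled MLL peptide was the positive control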
# TRPV1 potentiator = human TRPV1 potentiation; TRPV1-expressing cells, Fluo-8 calcium influx, capsaicin EC20 potentiation; host cell line not named in the record; control for the full effect not named in the record; potentiation, % at 8.33 µM; actives 0.02% (n = 320,000); active means potentiation above 80%; inconclusive means 30% to 80%; inactive means below 30%; note: 0% is about no effect
#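 TRPV1-expressing cells were cultured overnight at 35.5C and loaded with Fluo-8 calcium dye for 40 to 90 min at room temperature. After a 10 s baseline, compound was added and calcium influx was read kinetically for 3 min (ex 480/em 520 nm).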
# gsp ag = activates gsp, the McCune-Albright syndrome mutation | Potency, µM (top dose mostly 76.9 µM), inactives show at the top dose activation (cAMP increase), usual class: activators | actives 0.13% (n = 340,000) | AID 624287 | gsp mutant cells, cAMP HTRF, 30 min; control for the full effect not named in the record; active = well fitted activation curve with a large enough effect; inconclusive = small, poorly fitted or top-dose-only effect, or another doubt; inactive = no such curve, though single readings can be large or run the other way; cell line not stated here;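 note: phosphodiesterase inhibitor Ro 20-1724 added with compounds to block cAMP breakdown; potency is the fitted concentration of half-maximal effect; nearly all actives have a fitted effect of over 60% in size; about a fifth of the inactives were tested at one dose only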
#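 Cells stably selected in G418 were plated at 2000/well, grown 16-24 hr, then given compounds in DMSO with the PDE inhibitor […] (300 uM solution added) for 30 min at 37C; cAMP was read by HTRF.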
# gsp antag = gsp mutant antagonism; AID 624288; Potency, µM (highest dose often 76.9 µM), for the others: top-dose activity change, negative = inhibition, actives largely listed as inhibitors; gsp-mutant cells, cAMP HTRF, 30 min; control for the full effect not named in the record; actives 0.4% (n = 340,000); active = falling curve of any shape with a large fitted effect; inconclusive = falling curve, mostly with a smaller effect; inactive = flat or rising curve; cell line not stated here;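 note: intracellular cAMP measured with PDE inhibitor Ro 20-1724 present during compound exposure; potency is the fitted concentration of half-maximal effect; % is set by controls: 0 for no effect and ±100 for the full control effect; nearly all actives have a fitted effect of over 65% in size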
#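 HTRF cAMP read-out (cAMP-d2 plus anti-cAMP antibody-K in lysis buffer, 30 min RT). Before lysis, cells are exposed to compounds with […] for 30 min at 37C in DPBS containing Ca/Mg, BSA and Tween 20.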
# Sfp inh = blocks B. subtilis Sfp PPTase activity. Q9F4F7. Biochemical Sfp PPTase activity, qHTS. Potency, µM, without a hit: max response, negative = inhibition, actives largely listed as inhibitors. actives 3.5% (n = 310,000). AID 1490; active = well fitted inhibition curve with a large enough effect; inconclusive = small, poorly fitted or top-dose-only effect, or another doubt; inactive = no such curve, though single readings can be large or run the other way;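 note: the enzyme is Sfp with the accession as filed and its product quenches rhodamine fluorescence; potency is the fitted concentration of half-maximal effect; 0% = enzyme reaction without inhibitor and -100% = no enzyme wells; top concentration of the series not given in the record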
#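 Step 1, compound plus 15 nM Sfp-PPTase, 15 min, room temperature. Step 2, add rhodamine-CoA (5 uM) and BHQ-2-YbbR (12.5 uM). Step 3, read 525/598 nm fluorescence at 0 and 30 min.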
# TRPML1 blocker = blocks the human TRPML1 channel | TRPML1-inducible cells, Ca2+ dye fluorescence, FDSS; active compounds read low; inhibition of EC80 agonist-evoked calcium signal | Q9GZU1 | actives 0.02% (n = 390,000) | activity change, negative = inhibition, % (no concentration beside the values) | AID 624415; in the data active means activity change below about -50%; inconclusive means about -30% to -50%; inactive means above about -30%;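 note: stimulus is agonist 54-4 at its EC80 concentration; % is set by controls: 0 for no effect and ±100 for the full control effect; compound concentration not given in the record; the text of the record puts the active cut at -80%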
# Target sequence (Q9GZU1 whole entry, looked up): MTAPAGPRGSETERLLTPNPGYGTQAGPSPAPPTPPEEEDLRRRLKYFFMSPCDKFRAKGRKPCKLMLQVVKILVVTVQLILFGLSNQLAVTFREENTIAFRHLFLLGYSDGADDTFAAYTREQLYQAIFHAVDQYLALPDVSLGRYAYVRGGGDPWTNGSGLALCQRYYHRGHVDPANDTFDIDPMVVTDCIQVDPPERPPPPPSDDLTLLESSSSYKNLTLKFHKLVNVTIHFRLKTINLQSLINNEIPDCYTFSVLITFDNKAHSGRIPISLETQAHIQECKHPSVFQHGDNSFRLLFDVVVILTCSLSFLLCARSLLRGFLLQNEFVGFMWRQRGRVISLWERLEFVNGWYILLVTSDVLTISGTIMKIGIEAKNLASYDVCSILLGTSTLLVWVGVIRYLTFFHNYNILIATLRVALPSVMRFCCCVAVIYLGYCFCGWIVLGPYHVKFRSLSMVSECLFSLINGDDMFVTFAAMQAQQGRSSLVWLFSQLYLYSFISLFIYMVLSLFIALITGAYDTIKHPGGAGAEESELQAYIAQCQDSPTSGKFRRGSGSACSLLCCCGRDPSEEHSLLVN
#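 Tet-induced TRPML1-DL cells loaded with Ca8 no-wash calcium dye were read kinetically on FDSS. Compound addition was followed by EC80 agonist 54-4 (4 uM final); inhibition was read over 110 s.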
# ClpP mod = qHTS Assay for Activators of ClpP; purified B. subtilis ClpP, FRET peptide cleavage, 20 min; Potency, µM (series often up to 57.5 µM), for the others: at the highest dose activity change, negative = active; actives 1.9% (n = 340,000); AID 651965, 2013; active = well fitted falling curve with a large enough effect; inconclusive = small, poorly fitted or top-dose-only effect; inactive = no such curve, though single readings can be large or run the other way; note: potency is the fitted concentration of half-maximal effect; the source files actives as falling curves though it sought activators and does not explain the sign; nearly all actives have a fitted effect of over 65% in size; many hits overshoot -100%
# Target sequence (P80244 whole entry, looked up): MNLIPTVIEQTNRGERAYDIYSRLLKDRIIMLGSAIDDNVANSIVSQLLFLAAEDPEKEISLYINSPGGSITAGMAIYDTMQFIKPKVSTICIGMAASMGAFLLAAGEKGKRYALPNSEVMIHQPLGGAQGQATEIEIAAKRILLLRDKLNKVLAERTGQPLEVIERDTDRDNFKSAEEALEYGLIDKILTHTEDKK
#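 ClpP 10 microg/mL final, pH 8 Tris/KCl buffer with BSA, glycerol, Tween-20; compound pinned in; FRET-FV substrate; RT 20 min; Ex320/Em430; ΔFRET vs ADEP 5.8 microM, DMSO, no enzyme.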
# Starred values were filed as active, the others as inactive; ? = inconclusive; . = not tested or not shown; [ ] = another dose, or the depositor's remark.
SMILES,Menin-MLL FL inh,TRPV1 potentiator,gsp ag,gsp antag,Sfp inh,TRPML1 blocker,ClpP mod
COc1ccc(S(=O)(=O)N2CCCCCC2)cc1C(=O)NCc1cccs1,.,1,9%,-19%,.,11,-5.8%
CCC(C(=O)N1CCC(N2CCCCC2)CC1)n1nc(C)c2sc3ccccc3c2c1=O (stereo not given),.,16,22%,11%,13%,3,-9.3%
CCCCN1C(=O)C(CC(=O)NCCN2CCOCC2)CC(C(=O)N(C(C)C)C(C)C)=C1C (stereo not given),.,.,-35%[inhibitor],.,.,13,1.3%
O=S(Cc1ccc(Cl)cc1)c1ncc(CO)n1Cc1ccccc1 (stereo not given),-2.0,-3,2%,-12%,3%,-4,-0.5%
COc1ccc(S(=O)(=O)N2CCC(C(=O)N3CCCCC3)CC2)cc1Cl,-0.3,0,2%,0%,18%,-7,0.7%
CCC(C)NS(=O)(=O)c1ccc(OCC(=O)Nc2ccc3c(c2)OCO3)cc1 (stereo not given),-3.0,14,?,-1%,-5%,-10,-0.3%
CC(NC(=O)c1cccc(Br)c1)c1ccccc1 (stereo not given),1.6,-8,9%,-5%,16%,25,.
COc1ccc(C(=O)Nc2ccccc2C(=O)Nc2ccccn2)cc1,-1.7,-17,6%,-17%,11%,-15,.
C/C(CCS(=O)(=O)c1ccccc1)=N/O,1.2,4,0%,0%,10%,4,.
CCN1Cc2c(cc(OC)c(OC)c2OC)-c2ccccc2S1(=O)=O,.,.,.,9%,.,3,-4.3%
CCC(/C=C1\Sc2ccc(OC)cc2N1CCO)=C\c1sc2ccc(OC)cc2[n+]1CCO,?,-27,-92%[inhibitor],?,22µM*,1,-2.3%
O=C(NCc1ccccc1Cl)c1ccc2ccccc2n1,2.6,-10,-5%[15.4 µM],-15%,-9%,-6,.
COc1cc(OC)cc(C(=O)NC2CCN(CC(=O)Nc3cccc4ccccc34)CC2)c1,-1.3,14,-18%,-14%,4%,-8,-1.7%
COc1ccc(N2CCN(C(=O)c3cc4ccccc4o3)CC2)cc1,.,17,29%,2%,8%,-2,.
c1ccc(-c2ncc(-c3ccn[nH]3)s2)cc1,4.1,1,9%[15.4 µM],8%,21%,-2,.
CC1C=CCC2C(=O)N(c3cccc(C(=O)Nc4ccc(F)cc4)c3)C(=O)C12 (stereo not given),3.3,7,?,-10%,9%,0,0.7%
COc1ccc(CNC(=O)C2CCC(CNc3c(N4CCCCC4)c(=O)c3=O)CC2)cc1 (stereo not given),1.4,5,-19%[15.4 µM],-7%,15%,19,.
Cc1cccc(OCC(O)Cn2c(-n3nc(C)cc3C)nc3c2c(=O)[nH]c(=O)n3C)c1 (stereo not given),0.2,7,-17%,-3%,16%,29,-12%
NC(=S)NN=C1c2cc(S(=O)(=O)N3CCOCC3)ccc2-c2ccc(S(=O)(=O)N3CCOCC3)cc21,6.3,4,-1%,-25%,6%,-11,0.7%
Cc1ccc(N2CCN(S(=O)(=O)c3ccc(F)cc3)CC2)c(C)c1,-1.9,5,-11%,-1%,3%,0,-1.8%
CCN(CC)CCNC(=O)NC(=O)c1ccc(Cl)cc1,-11,-5,-5%[15.4 µM],6%,1%,-4,1.6%
CCN(CC)S(=O)(=O)c1ccc(NC(=O)C2CC(=O)N(c3ccc4c(c3)OCCO4)C2)cc1 (stereo not given),.,.,-10%,4%,.,6,1.4%
O=C(CSc1cccc[n+]1[O-])Nc1c(Br)cc([N+](=O)[O-])cc1Br,-7.1,-1,7%,9%,22%,-11,-0.4%
O=C(Nc1cccnc1)c1c(O)c2cccc3c2n(c1=O)CC3,-0.9,14,-19%,-1%,-3%,-5,0.7%
Cc1cc(C(=O)Nn2c(-c3ccncc3)nc3ccccc3c2=O)ccc1[N+](=O)[O-],1.8,0,16%,-13%,12%,-3,.
Cc1cccc(OCC(=O)OCC(=O)N(CC(C)C)c2c(N)n(Cc3ccccc3)c(=O)[nH]c2=O)c1C,.,21,-2%,-6%,.,-6,1.4%
O=C(Nc1cccc2nsnc12)c1ccc2c(c1)OCO2,2.8,-9,?,?,5%,33,-3.3%
COc1ccc(CCN2C(=O)NC(NC(=O)CCc3ccccc3)(C(F)(F)F)C2=O)cc1OC (stereo not given),-0.7,0,17%,2%,8%,-25,-1.0%
Cc1cc(C(=O)COc2ccccc2C(N)=O)c(C)n1C1CC1,0.9,-8,10%,-21%,12%,-21,0.4%
O=C(COC(=O)c1ccc(O)cc1O)Nc1ccc2ccccc2c1,.,4,16%,?,.,4,-1.5%
CCOc1ccccc1N1CCN(C(=O)CNC(=O)c2ccccc2F)CC1,.,3,-14%,6%,8%,-13,.
COc1ccc(NC(=O)CC2SC(=NCC3CCCO3)NC2=O)cc1 (stereo not given),1.0,-4,?,4%,7%,46,3.7%
Cc1ccc(-n2nnc(-c3nccs3)n2)cc1,1.1,-15,.,-2%,-6%,18,-1.0%
COc1ccc(C(=O)COC(=O)c2c(-c3ccccc3)noc2C)c(OC)c1,.,22,14%[15.4 µM],-22%,.,-4,-6.2%
COc1ccc(CCNC(=O)CCCNC(=O)Cn2cnc3sc(C)c(C)c3c2=O)cc1OC,0.2,-2,-10%,2%,17%,9,0.0%
Cn1c[n+](C)cc1/C=N/O,1.7,.,22%,9%,0%,19,0.1%
O=C(Cc1ccccc1)NCCc1cccc(Cl)c1,0.0,16,-22%,3%,14%,31,-1.7%
Cc1occc1C(=O)N/N=C/c1ccc(OCc2ccccc2)cc1,6.8,-9,7%,-9%,-21%,18,-2.7%
Oc1c(N=Nc2ccccn2)ccc2ccccc12,6.4,21,2%[15.4 µM],-12%,-15%,21,0.3%
O=C(N/N=C/c1ccco1)C(O)C(O)C(=O)N/N=C/c1ccco1 (stereo not given),-6.5,4,4%,7%,22%,25,.
CCOC(=O)N1CCN(c2cc(=O)n(C)c(=O)n2C)CC1,1.2,29,12%[15.4 µM],-3%,2%,-3,.
COC(=O)c1ccc(C(=O)OC)c(NC(=O)CN2CCN(c3ccc(OC)cc3)CC2)c1,-0.5,-5,-10%,-7%,17%,-2,-2.7%
Cc1ccc(NC(=O)CSc2nc3ccccc3c3nc(CCc4c(C)n[nH]c4C)nn23)cc1F,-0.4,7,-24%,-3%,1%,-1,1.8%
CC(C)CC(=O)Nc1ccc(S(=O)(=O)NCc2ccco2)cc1,1.9,-3,10%,6%,8%,-9,-0.3%
O=C(c1cc2c(=O)n3ccccc3nc2s1)N1CCOCC1,.,23,?,18%,14%,-11,4.5µM*
Cc1ccc(-c2nc(N3CCN(C)CC3)c3ccccc3n2)cc1,-4.7,11,13%,-5%,13%,.,-3.3%
O=C1c2cccc3cccc(c23)N1Cc1ccc(F)cc1,-1.0,-10,6%[15.4 µM],-13%,?,25,.
O=C(CCCn1cc([N+](=O)[O-])cn1)NCc1ccccc1,-0.4,15,-5%[15.4 µM],20%,11%,16,2.9%
Cc1ccc(-n2c(SCc3nc4ccccc4c(=O)[nH]3)nnc2-c2ccccc2O)cc1,0.6,4,-57%[inhibitor],-16%,20%,-11,1.0%
CCn1c(COc2ccc(Cl)cc2)nnc1SCc1ccc(C#N)cc1,1.4,-13,24%,-14%,12%,-23,-0.4%
Oc1ccc(Nc2nc(-c3cccs3)cs2)cc1,9.9,3,0%,-3%,0%,-13,-2.6%
CCOC(=O)c1ccc(-n2c(CN3CCC(C(N)=O)CC3)nc3ccc([N+](=O)[O-])cc3c2=O)cc1,-1.0,-2,5%,-21%,22µM*,22,-6.7%
N#Cc1ccc(OS(=O)(=O)c2ccc(-c3ccon3)s2)cc1,.,-6,3%,-18%,9%,16,-2.9%
CC1=C(C(=O)N(C)C)CC(CC(=O)NC(c2ccccc2)c2ccccc2)C(=O)N1CCC1=CCCCC1 (stereo not given),.,.,?,.,.,-1,1.2%
COc1cccc(-c2csc(N3CCN(C(=O)Nc4ccccc4Cl)CC3)n2)c1,-0.2,18,-47%[inhibitor],-19%,3%,35,-3.0%
O=C(Nc1ccccc1C(=O)Nc1ccccc1)c1ccco1,1.0,6,-4%,-4%,18%,-14,.
CCn1c(=O)cc(NC2=NCC(C)CN2c2cccc(Cl)c2)n(C)c1=O (stereo not given),1.6,-7,8%,-9%,10%,1,-0.5%
CCOC(=O)C1=NN(c2ccccc2C)C2=NC(C)=C(C(=O)OC)C(c3cccs3)N12 (stereo not given),1.8,-10,-44%[inhibitor],?,5%,2,1.6%
Cc1cccc(NC(=S)N2CCC(O)CC2)c1C,3.9,9,-5%,2%,3%,-10,.
CN(C)c1ccc(C=Cc2ccnc3c(O)cccc23)cc1,.,.,-16%,.,.,8,-0.6%
# Later entries
SMILES,Menin-MLL FL inh,TRPV1 potentiator,gsp ag,gsp antag,Sfp inh,TRPML1 blocker,ClpP mod
CCC(C)[C@H]1CNCCN1CC1(c2ccccc2)CC1 (stereo not given in full),.,17,5%,10%,.,14,-0.6%
CCC(C)NC(=O)c1cc(Cl)ccc1OC (stereo not given),4.3,17,-3%,6%,11%,0,-1.1%
CCn1c(=O)cc(SCC(=O)N2CCC(C)CC2)c2ccccc21,-1.1,-24,?,-16%,-2%,19,-19%
Cc1oc(/N=C/c2ccccc2O)c(C#N)c1C,?,0,-8%,13%,-27%,8,-1.6%
O=C(COC(=O)C1CC(O)CN1S(=O)(=O)c1ccccc1[N+](=O)[O-])c1ccc[nH]1 (stereo not given),.,-6,-3%,-2%,.,26,-4.3%
Cc1nn(CC(=O)NCc2ccc(C(=O)O)cc2)c(C)c1[N+](=O)[O-],3.6,1,4%,5%,20%,-13,.

# Entries listed so far that bear a hit mark in Sfp inh:
structure | Menin-MLL FL inh | gsp ag | gsp antag | Sfp inh | TRPML1 blocker
CCC(/C=C1\Sc2ccc(OC)cc2N1CCO)=C\c1sc2ccc(OC)cc2[n+]1CCO | ? | -92%[inhibitor] | ? | 22µM* | 1
CCOC(=O)c1ccc(-n2c(CN3CCC(C(N)=O)CC3)nc3ccc([N+](=O)[O-])cc3c2=O)cc1 | -1.0 | 5% | -21% | 22µM* | 22

# Not a hit list; about 4.9% have a hit in one of these screens.
